gsp antagonist = antagonists of gsp mutant (McCune-Albright syndrome) | 0.4% of 340,000 active | Potency, µM (series often up to 76.9 µM), for the others: at the top dose activity change, negative = inhibition, usual class: inhibitors | gsp-mutant cells, cAMP HTRF, 30 min; control for the full effect not named in the record; active = falling curve of any shape with a large fitted effect; inconclusive = falling curve, mostly with a smaller effect; inactive = flat or rising curve; cell line not stated here;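 note: intracellular cAMP measured with PDE inhibitor Ro 20-1724 present during compound exposure; potency is the fitted concentration of half-maximal effect; % is set by controls: 0 for no effect and ±100 for the full control effect; nearly all actives have a fitted effect of over 65% in size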
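Cells in G418 medium, seeded 16-24 h, 37C; buffer exchange to DPBS + 1 mM CaCl2, 0.5 mM MgCl2, 0.05% BSA; cpds in DMSO + […] (300 uM stock), 30 min 37C; HTRF cAMP detection.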
Six1-Eya2 inh = blocks human Six1 binding to Eya2; Q15475+O00167; AlphaScreen GST-Six1/His-Eya2 binding, biochemical; stronger effect = lower value; control for the full effect not named in the record; activity change, % (no concentration beside the values); 0.56% of 360,000 active; in the data active = activity change below about -65%; inconclusive = about -30% to -65%; inactive = above about -30%; note: % is set by controls: 0 for no effect and ±100 for the full control effect; compound concentration not given in the record
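Homogeneous AlphaScreen proximity assay pairing GST-Six1 with His-tagged Eya2 (added as 5X mix: 250 nM and 500 nM) in 50 mM Tris pH 8.0, 300 mM NaCl, 1 mM TCEP. Glutathione donor and nickel acceptor beads; 1 h, 37 °C, dark.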
CtBP-E1A blk = inhibitors of CtBP/E1A interaction; AlphaScreen GST-E1A/His-CtBP binding, 1536-well; stronger effect = lower value; control for the full effect not named in the record; AID 651724; 0.49% of 340,000 active; activity change, % (test concentration not listed); in the data active means activity change below about -65%; inconclusive means about -30% to -65%; inactive means above about -30%; note: % is set by controls: 0 for no effect and ±100 for the full control effect; compound concentration not given in the record
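AlphaScreen with 125 nM GST-E1A and 125 nM His-CtBP (5X stocks) in Tris pH 8.0, 300 mM NaCl, BSA, Tween 20, TCEP. Compounds preincubated 2 h at 37 deg C, then glutathione donor/nickel acceptor beads added for 1 h at 37 deg C in dark.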
D2 PAM = positive allosteric modulators of human D2 dopamine receptor; P14416; DiscoveRx D2 beta-arrestin cells, luminescence, 90 min; 100% = 57 uM dopamine signal; potentiation, % (concentration not given with the values); 0.23% of 360,000 active; active = potentiation of 50% or more; inconclusive = 30% to 50%; inactive = 30% or less;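 note: compound concentration not given in the record; tested on top of an EC20 dose of dopamine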
Target sequence (P14416 whole entry, looked up): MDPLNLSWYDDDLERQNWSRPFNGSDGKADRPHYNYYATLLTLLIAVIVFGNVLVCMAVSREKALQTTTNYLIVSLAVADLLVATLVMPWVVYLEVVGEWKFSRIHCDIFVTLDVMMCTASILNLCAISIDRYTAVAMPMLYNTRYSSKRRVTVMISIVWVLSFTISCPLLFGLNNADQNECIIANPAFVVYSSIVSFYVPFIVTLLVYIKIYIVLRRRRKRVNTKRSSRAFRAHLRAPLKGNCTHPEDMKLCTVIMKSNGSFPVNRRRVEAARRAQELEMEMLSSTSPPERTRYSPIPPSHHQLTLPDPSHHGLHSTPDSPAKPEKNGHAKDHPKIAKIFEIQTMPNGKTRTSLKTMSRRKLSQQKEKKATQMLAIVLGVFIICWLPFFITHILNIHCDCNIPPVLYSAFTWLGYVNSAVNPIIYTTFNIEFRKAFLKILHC
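PathHunter D2 cells, attached overnight at 37 deg C, received compound in DMSO plus dopamine at EC20 (50 nM final) for 90 min at 37 deg C. Beta-arrestin recruitment was read as luminescence after 1 h with detection reagent at ambient temperature.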
gsp ag = activates gsp, the McCune-Albright syndrome mutation. gsp mutant cells, cAMP HTRF, 30 min; control for the full effect not named in the record. 0.13% of 340,000 active. Potency, µM (highest dose often 76.9 µM), inactives show top-dose activation (cAMP increase), most hits filed as activators; active = well fitted activation curve with a large enough effect; inconclusive = small, poorly fitted or top-dose-only effect, or another doubt; inactive = no such curve, though single readings can be large or run the other way; cell line not stated here;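 note: phosphodiesterase inhibitor Ro 20-1724 added with compounds to block cAMP breakdown; potency is the fitted concentration of half-maximal effect; nearly all actives have a fitted effect of over 60% in size; about a fifth of the inactives were tested at one dose only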
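Cells in DMEM/10% FBS with G418 were pretreated with compounds in DMSO plus […] (300 uM stock) for 30 min at 37C. cAMP was measured by HTRF (cAMP-d2 plus anti-cAMP antibody-K) after 30 min at room temperature.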
D2 ag = human D2 receptor agonism in beta-arrestin assay; DiscoveRx PathHunter D2 beta-arrestin, luminescence, 90 min; 100% = 57 uM dopamine signal; activation, % (concentration not given with the values); 0.084% of 360,000 active; AID 624465; in the data active = activation above about 40%; inconclusive = about 15% to 40%; inactive = below about 15%; note: compound concentration not given in the record; the text of the record calls up to 30% inactive
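Agonist mode: compounds alone added to overnight-plated D2 PathHunter cells for 90 min at 37 C, with 57 uM final dopamine (EC100) defining full response. Beta-arrestin recruitment detected by chemiluminescent reagent, read after 1 h at ambient temperature.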
* = called active by the depositor; ? = inconclusive; nt = not tested or not shown; [ ] = another dose, or the depositor's remark. The order is random; overall some 1.4% were active at least once.

The line under a structure holds: gsp antagonist, Six1-Eya2 inh, CtBP-E1A blk, D2 PAM, gsp ag, D2 ag
1: CC1CCCC(NC(=O)CCNC(=O)c2ccc([N+](=O)[O-])cc2)C1C (stereo not given)
    -0.6%, 1.5, 0.7, -10.8, 6.9%, -4.1
2: CN(CC(=O)N1CCCCCC1)S(=O)(=O)c1ccccc1
    -3.7%, 2.5, 4.4, -6.0, -32.2%, 6.7
3: Cc1ccc(S(=O)(=O)NNc2c3ccccc3nc3ccc(Cl)cc23)cc1
    nt, -11.7, -2.0, -9.4, -23.1%, -5.6
4: Cc1c(C)n(Cc2ccccc2)c2ncnc(NCCCO)c12
    3.9%, 3.3, 8.1, -4.2, -3.3%, -3.1
5: O=C(NC(=S)Nc1ccc(NC(=O)c2ccccc2)cc1)c1ccc(F)cc1
    9.4%, 2.5, 3.7, -7.2, ?, 2.4
6: Cc1cc(C)cc(-c2nnc(SCC(=O)c3c(N)n(C4CC4)c(=O)[nH]c3=O)o2)c1
    -2.5%, -0.6, -9.8, -4.3, -28.9%, -14.0
7: O=C(O)CNC(=O)c1ccc(NC(=O)/C(=C/c2cccc([N+](=O)[O-])c2)NC(=O)c2ccco2)cc1
    9.0%, -0.5, 11.3, -5.3, ?, -4.7
8: O=C(Nc1ccno1)Nc1ccc(Cl)cc1Cl
    1.8%, -10.0, 2.7, 61.6*, -4.1%[15.4 µM], ?
9: COc1ccc(-c2nc(SCc3ccc(C#N)cc3)[nH]c(=O)c2C#N)cc1
    -11.5%, -0.2, nt, -2.2, -11.5%, -2.6
10: CNC(=O)C1CC(=O)N(Cc2ccc(OC)c(OC)c2)C(=Nc2ccc(OC)cc2)S1 (stereo not given)
    3.8%, -5.1, 3.1, -10.6, -43.5%[inhibitor], -2.5
11: Cn1c(CSc2ccccc2)c(C#N)c2ccccc21
    -27.6%, 19.1, 34.3, -15.1, -52.0%[inhibitor], -4.0
12: COc1ccc(CCNc2nc3c(c(=O)n(C)c(=O)n3C)n2C)cc1OC
    7.8%, -16.7, -24.8, 0.9, 6.6%, -2.5
13: C=CCOc1c(Cl)cc(Cl)cc1S(=O)(=O)NCCO
    -4.2%, 0.5, -8.3, -4.2, nt, -2.5
14: CCC(=O)Nc1ccc2c(c1)ncn2-c1ccccc1OC
    8.0%, 10.9, 9.5, -14.9, -5.3%, 0.8
15: O=C(O)c1cccc2c1C(=O)N(Cc1ccncc1)C2
    11.2%, 2.6, 18.5, -5.9, -11.7%, -1.2
16: CN(C)/C=N/S(=O)(=O)c1ccc(Cl)cc1
    -15.6%, 8.3, 4.5, -8.4, -6.3%, 1.9
17: COc1cccc(NC(=O)C(=O)NCC2CCCN2S(=O)(=O)c2ccccc2)c1 (stereo not given)
    -4.9%, 4.1, 4.2, -2.1, 22.4%[15.4 µM], 2.1
18: CCC(=O)N1CCN(c2ccc(NC(=S)NC(=O)c3cc4ccccc4o3)cc2)CC1
    ?, 10.0, -2.4, -16.4, -19.0%[15.4 µM], 2.4
19: Nc1nc(F)cc(NCc2ccccc2)n1
    ?, 3.9, nt, 0.1, 16.9%, -2.5
20: O=C(NCc1ccccc1)c1cccc(COc2ccc3c(c2)CCC3)c1
    -26.9%, 0.2, 5.9, 13.9, -18.4%, -2.3
21: COc1ccc(C2CC(=O)c3cnc(N)nc3C2)c(OC)c1 (stereo not given)
    14.8%, 2.0, -0.8, -3.1, -3.5%, -3.1
22: Oc1ccc2c(c1)C1CCCC1(N1CCOCC1)O2 (stereo not given)
    13.9%, 6.9, 5.8, 2.1, 5.5%[15.4 µM], 2.1
23: S=c1[nH]nc2ccccn12
    -2.8%, 0.4, 0.9, -17.0, nt, -5.3
24: O=C(/C=C/c1ccc(Cl)c([N+](=O)[O-])c1)c1cccnc1
    -9.4%, 4.7, 11.3, -3.9, 21.1%, -3.3
25: COc1ccc(C)cc1S(=O)(=O)N1CCCC(N2CCN(c3ccccc3)CC2)C1 (stereo not given)
    nt, -15.7, -7.6, -44.8, 19.8%, -4.5
26: CCOC(=O)c1cnn(-c2ccccc2)c1NC(=O)CN1CCCCC1
    6.3%, 14.9, 1.9, -12.1, 3.6%, -4.4
27: ONC(=Nc1ccc(Cl)cc1)c1ccccc1
    -1.0%, -1.1, 1.6, 15.9, 2.4%, -0.1
28: COc1ccc(CN2C(=O)c3cccnc3C2=O)cc1S(=O)(=O)N(C)Cc1ccco1
    1.7%, -5.7, -9.7, 0.0, ?, -0.1
29: CC1CN(c2nc3ccccc3nc2C(C#N)C(=O)OC2CCCCC2)CC(C)O1 (stereo not given)
    -4.7%, 4.3, 9.6, -15.3, -46.3%[inhibitor], -1.6
30: CCCCOc1ccc(N(CC(=O)NCC2CCCO2)C(=O)CCC(=O)Nc2cc(C)ccn2)cc1 (stereo not given)
    13.3%, 15.5, 0.0, -12.7, 6.5%, -1.9
31: COc1ccc(NC(=O)NNC(=O)COc2ccc3ccccc3c2)cc1
    -16.0%, -3.7, 7.1, -8.8, -1.1%[15.4 µM], -1.0
32: CC(=NNC(=O)c1ccc(NS(=O)(=O)c2ccc(Br)cc2)cc1)c1cccnc1
    -8.9%, -9.2, -1.4, 3.0, -1.8%[15.4 µM], -1.7
33: Cc1ccc(-c2cc3ccccc3nc2N)cc1
    -0.2%, 1.4, nt, -18.4, -0.3%, 4.3
34: CC1CCC(NC(=O)CCS(=O)(=O)c2ccc3c(c2)CCN3C(=O)C2CC2)CC1 (stereo not given)
    -1.6%, 2.2, 1.0, -8.8, 5.2%, -1.7
35: COCC(C)Nc1ccc(S(=O)(=O)N2CCCC2)cc1[N+](=O)[O-] (stereo not given)
    0.4%, -5.8, 0.0, 7.5, -3.7%[15.4 µM], -1.9
36: O=C1/C(=N\S(=O)(=O)c2cccs2)C([n+]2cccc(Cc3ccccc3)c2)=C([O-])c2ccccc21
    -5.0%, -5.4, -7.4, 21.3, -10.2%[15.4 µM], 9.5
37: COC(=O)c1c(NC(=O)c2ccco2)sc2c1CCN(C(C)C)C2
    6.0%, -3.7, -3.2, -9.8, 8.2%, -1.4
38: COc1ccc(-c2cn(-c3ccc(OC)cc3)c3[n+]2-c2ccccc2CC3)cc1
    -5.8%, -1.4, -5.5, -21.8, 7.0%, -3.1
39: O=C(CN1CCN(C(=O)c2ccco2)CC1)Nc1cc(C(F)(F)F)ccc1Cl
    -4.5%, -6.9, 7.2, -3.8, -67.5%[inhibitor], -0.5
40: COc1cc(S(=O)(=O)N2CCN=C2c2ccccc2)c(OC)cc1Cl
    3.2%, 5.2, -1.6, -17.3, -5.7%[15.4 µM], -1.7
41: CCN(CC)S(=O)(=O)c1ccc2c(c1)nc(CCC(=O)Nc1ccc(N3CCOCC3)cc1)n2C
    -21.9%, -1.0, 0.1, -0.2, -0.8%[15.4 µM], 0.5
42: S=C(Nc1ccc(N2CCOCC2)cc1)Nc1ccc2nc(-c3ccco3)c(-c3ccco3)nc2c1
    -0.6%, ?, ?, ?, ?, 7.8
43: O=C(CSc1nnc(-c2cccnc2)n1-c1ccccc1)Nc1ccc2c(c1)OCO2
    -4.5%, -3.4, 4.9, -3.8, -1.3%, -0.6
44: CCCNC(=O)CS(=O)Cc1nc(-c2ccccc2C)oc1C (stereo not given)
    -1.2%, 25.8, 3.9, -2.5, -51.4%, 0.0
45: CN(C)c1nc(N)nc(Cn2nnc(-c3ccc(C(F)(F)F)cc3)n2)n1
    0.3%, -6.3, 0.0, -18.0, -3.0%[15.4 µM], -5.4
46: CN(C)CCCCOc1cccc(Br)c1
    12.6%, 0.6, -12.1, -40.2, -18.8%, -4.1
47: N#Cc1c(N)c2ccccn2c1C(=O)c1ccc(Br)cc1
    0.2%, -5.2, nt, -3.9, 16.2%, -5.2
48: COc1ccc(C)cc1NC(=O)CNC(=O)[C@@H]1Cc2ccccc2CN1
    7.3%, 7.3, -3.1, -34.5, ?, 1.9
49: Cc1ccc(NC(=O)c2cccnc2)c([N+](=O)[O-])c1
    8.6%, -5.2, 0.1, 0.6, -6.7%, ?
50: Cc1cc(C)cc(C(=O)NCC(=O)OCC(=O)Nc2cccnc2Cl)c1
    nt, -1.1, 0.0, -2.5, 7.3%[15.4 µM], 2.0

More compounds follow:
The line under a structure holds: gsp antagonist, Six1-Eya2 inh, CtBP-E1A blk, D2 PAM, gsp ag, D2 ag
51: COc1ccc(CC(=O)NNS(=O)(=O)c2ccccc2[N+](=O)[O-])cc1OC
    -11.4%, 4.4, 19.8, -1.0, -4.9%[15.4 µM], -1.9
52: COc1ccc(C(O)c2ncc(-c3cccc(OCc4ccccc4)c3)[nH]2)cc1F (stereo not given)
    nt, ?, ?, -2.3, nt, -1.2
53: CCC/C(O)=C1\C(=O)CC(C)(C)CC1=Nc1cccc([N+](=O)[O-])c1
    -9.3%, 7.8, -1.4, 2.5, -16.7%, 2.0
54: O=C(CSc1nnc(C2CC2)n1-c1ccccc1)NCCN1C(=O)CSC1=O
    5.8%, -1.0, -8.9, -15.1, -7.3%[15.4 µM], -1.2
55: CCNC(=S)N(Cc1cc2cc(C)c(C)cc2[nH]c1=O)C1CCCC1
    -5.1%, -1.7, -10.5, -6.1, -5.9%[15.4 µM], 1.0
56: CCOc1ccc(N2C(=O)CC(NC3CCN(C(=O)c4cccs4)CC3)C2=O)cc1 (stereo not given)
    -0.2%, 7.2, 0.3, 6.1, -1.0%, 4.1
57: O=C(CSc1nnc(NC(=O)C2CC(=O)N(c3ccc(F)cc3)C2)s1)NCC1CCCO1 (stereo not given)
    12.4%, -1.4, 8.1, 2.2, -1.4%, 8.3
58: CCc1ccccc1-n1c(SCC(=O)N2CCCC2)nnc1-c1ccccn1
    4.4%, -17.6, -8.8, -0.5, -2.6%, 0.8
59: Cc1cc(C)n(C(=O)c2cccc(S(=O)(=O)N3CCCCC3)c2)n1
    -12.1%, 3.4, -16.4, -9.8, -0.3%, -3.3
60: CC(C)CSc1n[nH]c(=S)s1
    nt, 2.6, -11.1, -8.5, 2.4%[15.4 µM], -4.7
61: Cc1ccc(S(=O)(=O)N2CCN(CC(O)CN3CCOCC3)CC2)cc1 (stereo not given)
    5.2%, 1.5, -16.3, -0.7, -1.9%, -5.5
62: CCOc1ccc2cc(C3CC(c4ccco4)=NN3S(=O)(=O)c3ccccc3)c(Cl)nc2c1 (stereo not given)
    -8.2%, -8.4, 11.8, -5.9, -45.5%[inhibitor], -5.1
63: Cc1ccc(N2CCN(C(=O)c3cc(C(=O)c4ccccc4C)c[nH]3)CC2)c(C)c1
    -18.5%, -12.6, -6.9, -11.0, 2.0%, 2.1
64: CCOC(=O)c1c(CN(C)C)n(-c2ccccc2)c2cc(Br)c(OC)cc12
    6.2%, -28.3, ?, -22.6, 4.8%, -2.9
65: Cc1ccc(C)c(N2C(=O)c3ccc(C(=O)Nc4ccccn4)cc3C2=O)c1
    nt, -0.5, 1.9, -8.1, -32.9%[inhibitor], -2.4
66: O=c1[nH]cnc2scc(-c3ccccc3)c12
    -1.0%, 28.7, 13.0, -13.6, -18.3%, -1.7
